# MgrA DNA FP: modulators of Staphylococcus aureus MgrA DNA binding. fluorescence polarization. hit rate 0.13% among 84,000. inhibition, %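 (about 10 µg/mL by stock and volumes)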. AID 602314;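 active = above 50% in either of two replicates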;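 also: 0% = protein plus DNA without compound and 100% = DNA alone without protein; higher means less MgrA bound to DNA so lower polarization; one replicate is shown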
# S aureus helic: S. aureus DNA helicase inhibition; AID 485395; hit rate 0.05% among 120,000; inhibition, %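 (tested at about 80 µM)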; purified S. aureus helicase, fluorescence unwinding assay; about half of the hits fall short of the stated cut;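 active = both duplicates at 50% or more, or one of them with a favoured structure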;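 also: 0% = mean of negative control wells and 100% = mean of positive control wells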
# Active calls of the source: *; . = not tested or not shown. These rows are one share of the data; count on the stated rates, not on these rows.
SMILES,MgrA DNA FP,S aureus helic
CCOc1ccccc1Oc1c(C)oc2cc(O)ccc2c1=O,0.6,11
CCCn1c(=N)c(C(=O)OC)cc2c(=O)n3ccccc3nc21,3.6,33
COc1ccc(C)cc1-n1nnnc1SCC(=O)N1CCC(C(=O)Nc2nccs2)CC1,.,-7
CCc1ccc(NC(=O)CSC2=Nc3ccccc3C3=NC(C(C)C)C(=O)N23)cc1 (configuration not stated),0.4,-1
N#CCCn1cc(/C=C2\NC(=S)NC2=O)c(-c2ccc3c(c2)OCO3)n1,.,7
COc1ccccc1C1C2=C(CC(C)(C)CC2=O)Nc2ccccc2N1C(=O)Cc1ccccc1 (configuration not stated),-1.0,.
Cc1cccc(-c2n[nH]c(S(C)(=O)=O)c2C#N)c1,-1.8,.
Nc1nonc1C(=O)OCC(=O)Nc1ccccc1,.,-4
CNC(=O)c1ccsc1NC(=O)c1ccccc1,.,20
O=C(/C=C/c1cccs1)OCc1nc2ccc(Cl)cc2n1CCO,.,-10
O=c1c2cnn(CCO)c2ncn1Cc1ccc(C(F)(F)F)cc1,.,-2
c1ccc(C2CN(Cc3ccco3)C(c3ccccc3)O2)cc1 (configuration not stated),0.6,-1
CC(=O)NCC(=O)OCc1ccc(COC(=O)CNC(C)=O)cc1,.,-1
O=C(O)c1ccccc1C(=O)Nc1cccnc1,0.2,9
CCC(O)(CCN1CCCCC1)c1ccccc1 (configuration not stated),-1.8,8
O=C(CC1Nc2ccccc2NC1=O)Nc1ccccc1C(F)(F)F (configuration not stated),2.2,5
CSc1nc2ccc(I)cc2c(=O)n1C,1.1,2
COc1cc(OC)c(NC(=O)c2sc3ncnc(N4CCCCC4C)c3c2C)cc1Cl (configuration not stated),0.9,3
Cn1cccc1Cc1nnc(SCC(=O)Nc2ccccc2F)n1CCc1ccccc1,.,-5
CN1CCC(N)=NC1=O,.,-5
S=c1nn[nH]n1Cc1ccccc1,-1.7,.
O=c1oc2ccccc2cc1-c1nnc(Nc2cccc(C(F)(F)F)c2)s1,.,11
Cc1ccc(S(=O)(=O)Nc2ccc(F)cc2)cc1C(=O)N(C)CCO,.,-6
Nc1sc(-c2ccccc2)cc1C(=O)O,-3.7,.
CSc1nc(N)nc2sc(C(=O)c3ccc(Cl)cc3)c(N)c12,1.1,-1
CCCn1c(N)cc(=O)n(CCC)c1=O,.,-10
O=C(Nc1ccc(F)cc1F)NC1Cc2ccccc2C1,-1.8,.
O=C(CSc1nc2ccccc2s1)c1cc2ccccc2o1,0.4,12
O=C(Nc1sc2c(c1C(=O)NCCc1ccccc1)CCC2)c1ccco1,4.0,0
Cn1c(=O)[nH]c(=O)c2c1nc(CN1CCN(c3ccccc3F)CC1)n2CCc1ccccc1,.,9
O=C(CN1C2=NCCCN2c2ccccc21)c1ccc(Br)s1,1.7,11
COc1ccc(OCCSc2nc3ccccc3n2CC(N)=O)cc1,1.3,.
O=C(CSc1nnc(-c2ccco2)o1)NC1CCCCC1,.,17
O=C(NCc1cccs1)c1ccc(Cl)cc1Cl,-1.8,.
Cc1nn(-c2cc(C(F)(F)F)ccc2Cl)c(=O)c2noc(C)c12,.,27
FC(F)(F)c1ccc2c(Cl)ccnc2c1,-0.4,12
Cc1cccc(Oc2ccc(Cl)cc2N)c1,.,1
CCCC(=O)N1CC(=O)Nc2ccc(Br)cc2C1c1ccc(F)cc1 (configuration not stated),.,13
Clc1cc(C=Nc2cccnc2)c(Cl)s1,-0.1,.
O=C(/C=C/N1CCOCC1)C(F)(F)F,.,28

# Shown with values ahead of the structure: part of the list above.
MgrA DNA FP | S aureus helic | mol
. | 28 | O=C(/C=C/N1CCOCC1)C(F)(F)F
. | 27 | Cc1nn(-c2cc(C(F)(F)F)ccc2Cl)c(=O)c2noc(C)c12

# Not a retest: entries from further up.
SMILES,MgrA DNA FP,S aureus helic
Cn1cccc1Cc1nnc(SCC(=O)Nc2ccccc2F)n1CCc1ccccc1,.,-5
CN1CCC(N)=NC1=O,.,-5
S=c1nn[nH]n1Cc1ccccc1,-1.7,.
O=c1oc2ccccc2cc1-c1nnc(Nc2cccc(C(F)(F)F)c2)s1,.,11
Cc1ccc(S(=O)(=O)Nc2ccc(F)cc2)cc1C(=O)N(C)CCO,.,-6
Nc1sc(-c2ccccc2)cc1C(=O)O,-3.7,.
CSc1nc(N)nc2sc(C(=O)c3ccc(Cl)cc3)c(N)c12,1.1,-1
CCCn1c(N)cc(=O)n(CCC)c1=O,.,-10
O=C(Nc1ccc(F)cc1F)NC1Cc2ccccc2C1,-1.8,.
O=C(CSc1nc2ccccc2s1)c1cc2ccccc2o1,0.4,12
O=C(Nc1sc2c(c1C(=O)NCCc1ccccc1)CCC2)c1ccco1,4.0,0
Cn1c(=O)[nH]c(=O)c2c1nc(CN1CCN(c3ccccc3F)CC1)n2CCc1ccccc1,.,9
O=C(CN1C2=NCCCN2c2ccccc21)c1ccc(Br)s1,1.7,11
COc1ccc(OCCSc2nc3ccccc3n2CC(N)=O)cc1,1.3,.
O=C(CSc1nnc(-c2ccco2)o1)NC1CCCCC1,.,17
O=C(NCc1cccs1)c1ccc(Cl)cc1Cl,-1.8,.
Cc1nn(-c2cc(C(F)(F)F)ccc2Cl)c(=O)c2noc(C)c12,.,27
FC(F)(F)c1ccc2c(Cl)ccnc2c1,-0.4,12
Cc1cccc(Oc2ccc(Cl)cc2N)c1,.,1
CCCC(=O)N1CC(=O)Nc2ccc(Br)cc2C1c1ccc(F)cc1 (configuration not stated),.,13
Clc1cc(C=Nc2cccnc2)c(Cl)s1,-0.1,.
O=C(/C=C/N1CCOCC1)C(F)(F)F,.,28

# Continued:
SMILES,MgrA DNA FP,S aureus helic
O=C(O)CCc1ccc2c(c1)CCO2,-0.2,.
COc1ccc(C2Nc3ccccc3C(=O)N2Cc2ccccc2)cc1CSc1nc2ccccc2s1 (configuration not stated),3.4,.
O=C(NCc1ccco1)C(c1ccco1)N(C(=O)Cn1nnc2ccccc21)c1ccccc1 (configuration not stated),1.1,15
O=C(CSc1ccccn1)Nc1ccc(C2CCCCC2)cc1,-2.0,.
COc1ccc(CNCC(C)NCc2ccc(OC)c(OC)c2)cc1OC (configuration not stated),-2.6,10
CCOc1nc2c(ncn2C)c(=O)n1C,-0.1,-11
O=C(c1ccc2[nH]c(=O)oc2c1)c1ccc2[nH]c(=O)oc2c1,-1.0,4
